MLL AF4-AF9 inh: inhibitors of human MLL-AF4/AF9 interaction. P42568. AlphaScreen, biotin-AF4 peptide binding to FLAG-AF9. inhibition, % at 10 µM. 350,000 tested, 0.47% active. AID 651704;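 active = every replicate reaching a set inhibition limit, whatever the replicate mean, cut at about 25% in these data; inconclusive = mean inhibition reaches that limit but some replicates miss it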;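 also: 0% = plate neutral control median and 100% = total signal loss; the record names both 10 and 1 µM as test concentration; the first replicate is given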
Target sequence (P42568 whole entry, looked up): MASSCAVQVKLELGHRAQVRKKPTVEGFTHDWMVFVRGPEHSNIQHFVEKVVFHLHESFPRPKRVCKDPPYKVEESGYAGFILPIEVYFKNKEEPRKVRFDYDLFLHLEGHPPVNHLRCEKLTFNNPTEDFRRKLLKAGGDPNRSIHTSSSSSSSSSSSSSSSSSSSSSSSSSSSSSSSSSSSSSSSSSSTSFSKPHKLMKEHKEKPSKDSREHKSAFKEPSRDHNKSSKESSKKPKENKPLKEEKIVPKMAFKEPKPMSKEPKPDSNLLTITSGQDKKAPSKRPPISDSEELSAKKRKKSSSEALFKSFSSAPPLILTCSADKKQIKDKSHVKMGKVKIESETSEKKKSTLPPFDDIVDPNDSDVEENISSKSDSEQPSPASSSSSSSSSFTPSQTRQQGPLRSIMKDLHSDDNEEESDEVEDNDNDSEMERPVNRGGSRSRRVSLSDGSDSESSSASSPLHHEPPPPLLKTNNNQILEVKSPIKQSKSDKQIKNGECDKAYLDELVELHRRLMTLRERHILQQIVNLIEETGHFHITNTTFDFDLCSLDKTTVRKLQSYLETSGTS
Calb FLC: C. albicans growth modulation with fluconazole. C. albicans CaCi-2 (fluconazole-resistant clinical isolate) + fluconazole, Alamar Blue growth, 48 h. growth inhibition, % (concentration not given with the values). 300,000 tested, 0.57% active;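 active = most replicates above 75%; inconclusive = exactly half above 75%; inactive = most below 75%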;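 also: all wells also contain fluconazole at 8 µg/ml as a sub-toxic cotreatment; 0% = median of DMSO wells and 100% = median of geldanamycin control wells; wells of about 8 µL received 7.5 nL stock; the first replicate is given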
rRNA inh HTS: selective bacterial rRNA inhibition in E. coli; GFP signal change (wild-type ribosome), % (concentration not given with the values); AID 720706; 350,000 tested, 1.6% active; E. coli WT GFP vs humanized-ribosome RFP mutants, fluorescence, 24 h; stronger effect = lower value; DMSO median 0, no signal -100;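 active = significant combined selectivity score with lowered wild-type GFP, culture density cut under 30%, mutant RFP and density less affected; inactive = any of these conditions unmet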; also: one replicate is shown; some compounds called inactive have numbers as strong as hits
A1 inh: inhibitors of the anti-apoptotic protein A1, read as caspase activation | 330,000 tested, 0.066% active | MEF A1-2A-BIM cells, Caspase-Glo 3/7 luminescence, 3 h; percent of clofoctol response, vehicle zero | caspase activation, % (no concentration beside the values);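 active = over half of replicate activation scores above 10%, or exactly half above 10 with the replicate mean above 10; inconclusive = replicate mean below 10 yet half the replicates above 10; inactive = over half of replicates below 10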;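 also: wells of about 30 µL received 50 nL stock; many hits fall short of the cut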
Beta cell apopt: beta cell apoptosis inhibition; 300,000 tested, 0.8% active; INS-1E cytokine-induced death, ATP luminescence, 48 h; percent of positive-control rescue, neutral wells zero; protection from apoptosis, % (no concentration beside the values);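 active = all replicates at 75% or more, or half of them and the mean; inconclusive = half reach 75% but not the mean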;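 also: 0% = cytokine-treated negative control wells and 100% = positive control rescue; higher means more ATP so stronger rescue from cytokine killing; wells of about 40 µL received 100 nL stock; the first replicate is given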
Vif TR-FRET: inhibitors of Vif binding to APOBEC3G peptide, primary screen, biochemical, TR-FRET, GST-Vif 1-94, biotin-A3G peptide, dose response retest (AID 1117319); TR-FRET GST-Vif / biotin-A3G peptide binding; higher % means a stronger effect; test concentration not given here; strong numbers were not always called active; 260,000 tested, 0.57% active; one-dose inhibition, %; IC50 in µM for titrated hits;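 active = above the screen mean plus three standard deviations and confirmed in dose response; inconclusive = results disagree or hit not tested in dose response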;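 also: Vif residues 1-94 fused to GST binding biotinylated APOBEC3G peptide 110-148; 0% = full assay without inhibitor and 100% = GST in place of GST-Vif; retest series ran down from 100 µM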
RanGTP-Impb inh: disruptors of Ran-importin-beta complex formation – biochemical, FRET, CFP-Ran, YFP-importin-beta, homogeneous, primary screen | cell-free CFP-Ran/YFP-importin-beta FRET ratio | inhibition, % (test concentration not listed) | 300,000 tested, 1.1% active;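 active = most replicates above 15%; inconclusive = exactly half above 15%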;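 also: 0% = DMSO wells and 100% = Ran loaded with GDP instead of GTP; wells of about 40 µL received 100 nL stock; the first replicate is given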
T cruzi repl: T. cruzi replication inhibition. T. cruzi beta-gal in NIH3T3, luminescence, 90 h. inhibition, % (no concentration beside the values). 300,000 tested, 1.4% active. AID 1885;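 active = mean inhibition across valid replicates above about 55%, limit read from the data; inconclusive = mean below that limit but half or more replicates reach it; inactive = mean below it, under half of replicates reach it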;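 also: signal also drops with host cell toxicity which is not excluded here; 0% = plate median of DMSO wells and 100% = zero luminescence signal; higher percent means less beta-gal luminescence so fewer parasites; stock transfer was 50 nL into about 50 µL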
rRNA inh HTS OD600: second read-out of rRNA inh HTS, no call of its own (marks repeat the call); OD600 change, %; measured here: OD600 growth;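 optical density of the mix in the first replicate; 0 = DMSO median and -100 = no signal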
rRNA inh HTS RFP: also measured in rRNA inh HTS; calls as there; RFP signal change, %; measured here: RFP humanized mutant strains;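 first replicate; 0 = DMSO median and -100 = no signal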
An asterisk follows results filed as active; ? = inconclusive; / = not tested or not shown; & = joins results of further samples. These rows are one share of the data (hit frequency here may not be typical).

SMILES	MLL AF4-AF9 inh	Calb FLC	rRNA inh HTS	rRNA inh HTS OD600	rRNA inh HTS RFP	A1 inh	Beta cell apopt	Vif TR-FRET	RanGTP-Impb inh	T cruzi repl
Nc1cc(=O)[nH]c(SCCSc2ccccc2F)n1	-0.8	-15	-8	-3	-1.6	-0.4	-5	/	-2.8	-5
CC(C)OCCCNS(=O)(=O)c1ccc2c(c1)OCCO2	/	-14	/	/	/	0.1	-1	1%	2.0	-13
COc1cc(Cl)cc(/C=C/c2ccc3cccc(O)c3n2)c1OC	-2.6	-4	6	7	2.7	-0.1	25	/	8.3	47
O=C(CCNC(=O)c1ccco1)Nc1nc(-c2ccccc2)cs1	2.8	/	-30	-50	4.6	-3.9	-6	/	/	/
CN(C)C(CNC(=O)CSc1nc2sc3c(c2c(=O)n1C)CCC3)c1ccccc1 (stereo unspecified)	2.4	-1	10	3	2.1	-0.6	/	0%	-1.7	3
CSc1ccc(CN(C)C(=O)CN2C(=O)NC3(CCCC3)C2=O)cc1	0.3	0	1	1	0.9	0.1	-2	3%	/	-10
CN=Cc1c(NC)nc2c(C)cccn2c1=O	/	-10	/	/	/	0.2	1	9%	8.2	-14
Cc1cccc(N)c1SC1CCCCC1O (stereo unspecified)	0.3	0	/	/	/	-0.1	-5	/	7.5	-12
O=C(c1ccc(-c2ccccc2Cl)o1)N1CCCC(C(F)(F)F)C1 (stereo unspecified)	1.3	/	-40	-71	-11	-0.4	12	-14%	/	/
COc1cc(NS(=O)(=O)c2ccc(NC(=S)NC(=O)c3ccc(F)c(F)c3)cc2)nc(OC)n1	-0.3	1	-1	-16	-0.9	-1.2	2	10%	2.8	-3
Cc1ccc(S(=O)(=O)C2(C(=O)Nc3ccc(C(C)C)cc3)CC2)cc1	-7.0	-10	2	-1	4.5	0.0	-2	2%	4.2	5
CC1CC(C)(C)NC(=S)N1CCCC(=O)N1CCN(c2ccc(F)cc2)CC1 (stereo unspecified)	/	4	/	/	/	0.5	0	/	3.6	-16

Next section; it opens with the two that closed the last part.
SMILES	MLL AF4-AF9 inh	Calb FLC	rRNA inh HTS	rRNA inh HTS OD600	rRNA inh HTS RFP	A1 inh	Beta cell apopt	Vif TR-FRET	RanGTP-Impb inh	T cruzi repl
Cc1ccc(S(=O)(=O)C2(C(=O)Nc3ccc(C(C)C)cc3)CC2)cc1	-7.0	-10	2	-1	4.5	0.0	-2	2%	4.2	5
CC1CC(C)(C)NC(=S)N1CCCC(=O)N1CCN(c2ccc(F)cc2)CC1 (stereo unspecified)	/	4	/	/	/	0.5	0	/	3.6	-16
Cc1ncn(C23CC4CC(CC(O)(C4)C2)C3)n1	/	0	/	/	/	-1.5	-10	29%	2.1	6
Cc1ccc(C)c(NC(=O)C2CC(=O)N(C3CCCCC3)C2)c1 (stereo unspecified)	-3.5	-8	3	5	2.8	0.8	-13	/	-1.5	-13
Cc1cc(NC(=O)CSc2nc(=O)cc(N)n2-c2ccc(C)c(C)c2)no1	0.3	-4	13	12	1.8	1.3	-4	/	-5.0	-7
O=C(NC(=S)Nc1ccc(N2CCOCC2)cc1)c1ccc2c(c1)OCCO2	/	16	/	/	/	1.5	2	?	-1.2	8
COc1cc(/C=N/Nc2nc(C)nc3c2cnn3-c2ccccc2)ccc1O	4.8	38	-13	7	-4.5	/	/	/	3.0	23
Cc1ccc(-n2c(N)c(C(=O)Nc3c(C)n(C)n(-c4ccccc4)c3=O)c3nc4ccccc4nc32)cc1	2.2	-2	4	7	3.3	?	8	/	-11	13
CN(CC(=O)Nc1ccccc1Br)C(=O)c1ccccc1Cc1ccccc1	-3.0	/	-17	-48	-5.0	1.6	-26	-8%	/	/
COCCCNC(=O)C(C#N)c1nc2ccccc2nc1N1CCN(Cc2ccccc2)CC1 (stereo unspecified)	/	-9	/	/	/	/	/	?	?	22
CCC(c1nnnn1Cc1ccco1)N(CCc1ccccc1)Cc1cc2cccc(C)c2[nH]c1=O (stereo unspecified)	/	-16	/	/	/	?	4	16%&1%	-2.7	35
C#CCn1cnc2c(oc3ccccc32)c1=O	/	4	/	/	/	-1.4	-3	16%	1.5	-4
Cc1ccc(NC(=O)COc2cccc3c2OC(C)(C)C3)c(O)c1	0.5	/	-14	-19	-2.8	-1.3	-3	6%	/	/
CCOc1nc(Nc2cc(Cl)ccc2OC)nc(OCC)n1	/	-1	/	/	/	0.0	6	11%	1.8	15
Cc1cc(O)c(-c2cc(C(=O)Nc3sc4c(c3C(=O)NCc3ccco3)CCC4)[nH]n2)cc1C	-1.0	-1	0	0	2.6	1.5	5	-2%	?	27
COc1ccc(OC)c(CNC(=O)CCNC(=O)Cn2ccc3ccccc3c2=O)c1	/	-2	/	/	/	1.1	0	-8%	0.3	-32
CC12CN3CC(C)(CN(C1)C3c1cc(Br)ccc1O)C2=O (stereo unspecified)	/	7	-2	6	-3.2	-0.1	-7	6%	0.3	1
O=C(NC1CCN(c2ncccn2)CC1)c1ccccc1Cl	2.8	-7	12	12	4.8	-0.1	-5	-2%	-5.8	-14
CCOC(=O)N1CCN(Cc2nc3c(c(=O)[nH]c(=O)n3C)n2CCCc2ccccc2)CC1	1.2	16	2	-2	-5.5	0.3	0	26%	?	-4
CN(C)P(=NC(=O)COc1ccc(Cl)cc1Cl)(N(C)C)N(C)C	-74	-6	/	/	/	1.6	-6	-4%	-0.3	15
COc1ccnc(CSC(N)=Nc2ccccc2OC)c1	/	6	/	/	/	-0.3	-4	?	1.2	-7
O=C(Nc1sc2c(c1C(=O)O)CCCC2)c1cccs1	/	49	/	/	/	-5.8	0	?	?	-34
COc1cc2c(cc1OC)C(Nc1ccccc1)=NC(C)(C)C2	-5.0	-6	19	12	3.9	-0.2	-4	-4%	1.7	10
CC(C)CCOc1ccc(Cl)cc1CN1CCOCC1	/	-1	/	/	/	-1.3	4	19%	1.7	21
COc1ccccc1N(CC(=O)NCCN1CCOCC1)S(=O)(=O)c1ccc(C)cc1	-0.1	-1	5	2	0.9	0.0	/	-5%	5.5	2
CC1CCC(NC(=O)COC(=O)CNC(=O)c2ccc3ccccc3c2)CC1 (stereo unspecified)	-1.6	/	-3	-14	1.3	-0.6	1	4%	/	/
O=S(=O)(c1cc(Cl)cc(Cl)c1)N1CCCC1c1nc2ccccc2s1 (stereo unspecified)	/	9	/	/	/	0.0	5	4%	-0.7	-2
CS(=O)(=O)c1cccc(-c2nnc(NC(=O)c3ccc(S(=O)(=O)N4CCCC4)cc3)o2)c1	1.8	-9	5	2	-1.1	1.2	-6	-1%	-2.3	-10
Cc1ccc(NC(=O)CCC(=O)NNC(=O)Nc2cccc(Cl)c2)c(C)c1	0.9	-5	4	16	5.2	-1.1	-2	5%	5.1	19
CNC(=O)c1ccc(N(Cc2ccccc2C)S(C)(=O)=O)cc1	/	19	/	/	/	0.0	/	7%	-4.2	-10
CCN1CCN(Cc2nc(N)nc(Nc3ccc(C)c(C)c3)n2)CC1	/	-16	/	/	/	0.1	-3	19%	0.3	-1
CCCCN(CC)Cc1c(O)ccc2c3c(c(=O)oc12)CCC3	6.7	-7	3	-1	-7.9	-0.6	0	2%	-3.0	0
O=c1c(Cl)c(N2CCN(c3ccc(F)cc3)CC2)cnn1C12CC3CC(CC(C3)C1)C2	4.0	-3	/	/	/	0.6	4	/	-0.4	63*
COc1cc2c(cc1OC)CN(C(=O)c1ccc(S(=O)(=O)N(C)c3ccccc3)cc1)CC2	6.7	12	-31	-58	-11	0.0	-5	6%	1.3	11
Cc1cccc(-c2noc(-c3c(C)noc3C)n2)c1	-0.1	-2	8	2	-1.6	-5.2	/	1%	-3.2	9
CC(NC(=O)CCN1C(=O)c2ccccc2C1=O)c1ccc2c(c1)CCCC2 (stereo unspecified)	-5.6	2	20	23	-8.1	-0.1	-2	/	-3.1	-3
Cc1cnc(C(=O)OCC(=O)NC(=O)c2ccccc2)cn1	-4.0	2	1	12	-2.2	-0.6	-7	-1%	1.1	-20
O=C(C1CCC(CNS(=O)(=O)c2cccs2)CC1)N1CCCCC1 (stereo unspecified)	/	16	/	/	/	1.0	-4	2%	4.5	7
COc1cccc(/C=C2\SC(N3CCC(C)CC3)=NC2=O)c1OC	1.2	-16	-13	-18	2.5	-0.4	-1	1%	-0.7	10
COc1ccccc1NC(=O)c1nnn(CC(=O)Nc2cc(C)cc(C)c2)c1N	-1.6	12	1	5	-2.6	-0.3	8	/	?	7
O=C(CSc1nnc(-c2cccc(F)c2)o1)NC1CCCC1	-5.6	-7	/	/	/	/	/	/	?	-3
COc1ccc(-c2nc3ccccc3c(=O)n2CCOc2ccc(C)cc2C)cc1	/	-4	/	/	/	0.1	0	/	-4.7	17
CCNC(=O)C(CCSC)NS(=O)(=O)c1ccc(C)cc1 (stereo unspecified)	-5.4	5	10	0	-6.2	0.1	1	5%	-3.2	-1
COc1ccc(C2c3[nH]c4ccccc4c3C[C@H]3C(=O)N(CCCO)CC(=O)N23)cc1OC (stereo partly specified)	1.7	17	0	3	-0.2	1.7	-8	0%	-0.1	-9
CC(CCc1ccccc1)NC(=O)CCNC(=O)Cn1ccc2ccccc2c1=O (stereo unspecified)	-6.8	-14	8	18	1.2	0.6	-9	4%	-1.2	-13
COc1cc(NC(=O)COC(=O)C2CC2)c(C)cc1[N+](=O)[O-]	/	3	/	/	/	0.1	-4	-10%	4.2	-11
Cc1ccc(S(=O)(=O)N2CCCCC2CCNC(=O)C(=O)NCC2CCCO2)cc1 (stereo unspecified)	-0.8	-6	4	-2	2.0	-0.2	2	/	0.3	16
O=C1NC(=S)N/C1=C/c1cccn1-c1ccc([N+](=O)[O-])cc1	-0.8	13	-4	11	-9.4	0.2	/	?	?	15
O=C(CN1C(=O)COc2ccccc21)NCCCN1CCN(Cc2ccccc2)CC1	/	-3	/	/	/	-0.9	1	2%	3.5	2
O=C(NC1CCCC1)c1ccc(COCC(F)(F)F)o1	-18	?	6	4	1.7	-0.1	-31	0%	-3.6	-2
COc1cccc(CNC(=O)CN2C(=O)c3ccccc3S2(=O)=O)c1	-13	-7	6	5	-0.3	0.2	-6	3%	1.8	-9
CCOC(=O)C(NC(=O)CC)(Nc1ccc(S(N)(=O)=O)cc1)C(F)(F)F (stereo unspecified)	-11	-2	3	3	0.3	-0.1	2	-6%	-1.1	5
CS(=O)(=O)Nc1cccc(C2=NN(S(C)(=O)=O)C(c3ccc4c(c3)OCO4)C2)c1 (stereo unspecified)	/	-14	/	/	/	0.1	-5	-2%	1.3	6
O=C(/C=C/c1ccccc1)NCCOc1ccccc1	1.0	-4	-4	-3	3.6	0.2	-2	-6%	4.1	7
